Screens (PubChem)
CSC inhib: blocks cancer stem cells; cancer stem cell-like cells viability, luminescence; 300,000 tested, 1.1% active; inhibition, % at 7.5 µM;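 active = mean at 75% or more and at least half the replicates too; tested in HMLE shEcad cells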;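 also: 0% = median of negative and 100% = median of positive control wells; the first replicate is given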
MT1-MMP act inh: blocks activation of human MT1-MMP; P50281; HT1080 RFP-PRO-GFP cells, GFP/RFP ratio fluorescence, overnight; percent of plate control window, DMSO zero; GFP/RFP ratio change, % at 20 µM; 360,000 tested, 0.061% active; AID 651647;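 active = GFP/RFP ratio change of at least 30% with cell ATP level not reduced by more than half and red fluorescence within 50% of control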; also: strong numbers were not always called active
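Assay system – RFP-PRO-GFP reporter HT1080 cells · Compound dosing – single dose of 20 µM compound, 1% DMSO final · Incubation – overnight compound exposure at 37 °C · Measure – GFP/RFP fluorescence ratio · Benchmarks – DMSO wells and RFP-L50D-GFP cells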
Env fusion inh: blocks HIV Env-driven cell-cell fusion; HeLa-JRFL Env/CEM21 cell fusion, luciferase; AID 651610; inhibition, % at 12.3 µM; 360,000 tested, 1.1% active;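 active = mean replicate inhibition score of at least 50 and every replicate individually at or above 50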;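 also: 0% = plate neutral controls and 100% = maraviroc near 300 nM; one replicate is shown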
Yeast UUG start: modulators of start codon recognition fidelity in yeast; S. cerevisiae UUG-firefly luciferase reporter, luminescence/redox ratio; activity score, % at 18.7 µM; 350,000 tested, 0.13% active; AID 602363;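 active = replicate mean at a twofold rise or more, about +100% in these data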;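 also: firefly luciferase made from a UUG start codon reports start codon fidelity; reporter light over untreated wells divided by growth signal over untreated wells; some hits fall short of that in this replicate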
MT1-MMP act inh RFP: also measured in MT1-MMP act inh; calls as there; RFP signal change, %; measured here: RFP expression control read;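 0 = vehicle wells; hits needed this value within 50% of zero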
An asterisk follows results filed as active; . = not tested or not shown; [ ] = another dose, or the depositor's remark. These rows are one share of the data. The share of hits here may be higher or lower than overall.

Field names – A = CSC inhib; B = MT1-MMP act inh; C = MT1-MMP act inh RFP; D = Env fusion inh; E = Yeast UUG start
> O=C1NC(Cc2ccccc2)c2nc3ccc(Cl)cc3c(=O)n2-c2cc(Cl)ccc21 (configuration not stated)
  A: -15	B: .	C: .	D: 16	E: .
> O=C(NCCC(=O)N1CCN(Cc2c(F)cccc2Cl)CC1)c1ccc(Cl)cc1
  A: -5	B: .	C: .	D: -13	E: .
> NC(=O)C1CCN(c2nc(-c3ccccc3Br)cs2)CC1
  A: -7	B: .	C: .	D: -63	E: .
> O=C1NC(Cc2ccccc2)c2nc3cc(F)ccc3c(=O)n2-c2ccc(Cl)cc21 (configuration not stated)
  A: -13	B: .	C: .	D: 26	E: .
> Cn1c(-c2ccc(F)cc2)cc2onc(-c3c(F)cccc3Cl)c2c1=O
  A: -3	B: .	C: .	D: -221	E: .
> Cc1ccc(S(=O)(=O)N2CCCC2)cc1C(=O)Nc1ccc(-n2cnnn2)cc1
  A: -13	B: .	C: .	D: 14	E: .
> O=C(NCc1ccc(F)cc1)c1cccc2c1C(=O)c1ccc(Cl)cc1S2(=O)=O
  A: -18	B: .	C: .	D: -16	E: .
> Cc1ccc2nc3n(c(=O)c2c1)-c1cc(Cl)ccc1C(=O)NC3Cc1ccccc1 (configuration not stated)
  A: -8	B: .	C: .	D: 21	E: .
> COc1ccc(NS(=O)(=O)c2cc(N)ccc2N2CCCCC2)cc1
  A: 12	B: 3	C: 0	D: .	E: .
> CC(NC(=O)c1ccc(S(=O)(=O)NCc2ccco2)cc1)c1ccc(F)cc1 (configuration not stated)
  A: 15	B: 0	C: 0	D: .	E: .
> O=S(=O)(c1ccc(F)c(F)c1F)N1CCN(c2ncnc3sccc23)CC1
  A: 40	B: 1	C: -27	D: .	E: .
> O=C(C1=COCCO1)N1CCN(S(=O)(=O)c2cccc(Br)c2)CC1
  A: 13	B: -1	C: 1	D: .	E: .
> Cc1cc(OCC(=O)OC(C)C(=O)Nc2ccc(N3CCOCC3)cc2)ccc1Cl (configuration not stated)
  A: -3	B: 8	C: 0	D: .	E: .
> CCCCn1c(N)c(N(CC(C)C)C(=O)c2cc(Cl)nc3ccccc23)c(=O)[nH]c1=O
  A: -4	B: -10	C: -1	D: .	E: .
> O=c1cc(-c2ccc(O)cc2)oc2c1ccc1ccccc12
  A: 25	B: -5	C: -3	D: .	E: .
> CC(C)Oc1ccc(S(=O)(=O)N2CCCCC2)cc1NC(=O)CN1CCCC1c1cccs1 (configuration not stated)
  A: 12	B: -26	C: -25	D: .	E: .
> COc1ccc(CNC(=O)CN(C)S(=O)(=O)c2ccc3c(c2)OCCO3)cc1OC
  A: -9	B: 1	C: -3	D: .	E: .
> Cc1c(C(=O)NNC(=O)c2csc(N3CCOCC3)n2)cccc1[N+](=O)[O-]
  A: -5	B: -4	C: 2	D: .	E: .
> O=C(COc1ccc([N+](=O)[O-])cc1)Nc1ccccc1C(=O)NC1CC1
  A: 16	B: -12	C: -3	D: .	E: .
> COc1ccc(CN(C)C(=O)c2cc(S(=O)(=O)NCc3ccccc3)ccc2C)c(OC)c1
  A: -5	B: -5	C: -12	D: .	E: .
> COc1ccc(S(=O)(=O)N2CCCCC2)cc1NC(=O)C1CC(=O)N(Cc2ccccc2)C1 (configuration not stated)
  A: -21	B: 5	C: 0	D: .	E: .
> CCN(CC(=O)NCc1cccs1)C(=O)c1ccc(S(=O)(=O)Nc2ccccc2Cl)cc1
  A: -13	B: 2	C: 2	D: .	E: .
> O=C(CN1CCN(S(=O)(=O)c2cccc(F)c2)CC1)Nc1ccnn1C1CCCC1
  A: -2	B: -1	C: -9	D: .	E: .
> Cc1c(NC(=O)CN(C)CC(=O)Nc2ccc(F)c(F)c2F)c(=O)n(-c2ccccc2)n1C
  A: -9	B: 2	C: 4	D: .	E: .
> COc1ccccc1OCC(=O)NNC(=O)c1ccc(F)c(S(=O)(=O)N2CCOCC2)c1
  A: -11	B: 8	C: 3	D: .	E: .

Just MT1-MMP act inh (2 entries from above):
| SMILES | MT1-MMP act inh |
| --- | --- |
| CC(C)Oc1ccc(S(=O)(=O)N2CCCCC2)cc1NC(=O)CN1CCCC1c1cccs1 (configuration not stated) | -26 |
| COc1ccc(CNC(=O)CN(C)S(=O)(=O)c2ccc3c(c2)OCCO3)cc1OC | 1 |

Grouped by structure: those above with bromine
Field names – A = CSC inhib; B = MT1-MMP act inh; C = MT1-MMP act inh RFP; D = Env fusion inh; E = Yeast UUG start
> NC(=O)C1CCN(c2nc(-c3ccccc3Br)cs2)CC1
  A: -7	B: .	C: .	D: -63	E: .
> O=C(C1=COCCO1)N1CCN(S(=O)(=O)c2cccc(Br)c2)CC1
  A: 13	B: -1	C: 1	D: .	E: .

Shown with bars between the fields: three of the compounds above.
SMILES | CSC inhib | MT1-MMP act inh | MT1-MMP act inh RFP | Env fusion inh | Yeast UUG start
Cc1cc(OCC(=O)OC(C)C(=O)Nc2ccc(N3CCOCC3)cc2)ccc1Cl (configuration not stated) | -3 | 8 | 0 | . | .
Cc1c(NC(=O)CN(C)CC(=O)Nc2ccc(F)c(F)c2F)c(=O)n(-c2ccccc2)n1C | -9 | 2 | 4 | . | .
COc1ccc(NS(=O)(=O)c2cc(N)ccc2N2CCCCC2)cc1 | 12 | 3 | 0 | . | .

Next entries
Field names – A = CSC inhib; B = MT1-MMP act inh; C = MT1-MMP act inh RFP; D = Env fusion inh; E = Yeast UUG start
> O=C(NNC(=S)NC(=O)c1ccc(F)cc1)c1ccncc1
  A: -11	B: 5	C: 1	D: .	E: .
> CC1(C)CC2CC(C)(CN2S(=O)(=O)c2ccc(F)cc2F)C1 (configuration not stated)
  A: 4	B: -2	C: -4	D: .	E: .
> O=C(NCCc1ccc(F)cc1)c1ccc(S(=O)(=O)N2CCCC2)cc1
  A: -12	B: -1	C: -6	D: .	E: .
> O=C(CCC(=O)c1cccs1)OCC(=O)c1ccccc1
  A: -10	B: 8	C: 4	D: .	E: .
> Cc1nc2ncnn2c(N2CCC(C(=O)NCC3CCCO3)CC2)c1Cc1ccccc1 (configuration not stated)
  A: -12	B: 2	C: 4	D: .	E: .
> COc1ccc(C(=O)Nc2ccc(N3CCCCCC3)cc2)cc1S(=O)(=O)N1CCOCC1
  A: 15	B: 11	C: -24	D: .	E: .
> C[C@H](CO)N1C[C@H](C)[C@@H](CN(C)S(=O)(=O)c2ccccc2)OCCCC[C@H](C)Oc2ccc(N(C)C)cc2C1=O
  A: .	B: .	C: .	D: 7[16.7 µM]	E: 5
> COc1ccc(NC(=O)N[C@@H]2CC[C@H](CCn3cc(-c4ccc(OC)cc4)nn3)O[C@@H]2CO)cc1
  A: .	B: .	C: .	D: 1[16.7 µM]	E: 5
> COc1ccc(S(=O)(=O)Nc2ccc3c(c2)C(=O)N([C@H](C)CO)C[C@H](C)[C@@H](CN(C)S(=O)(=O)c2cn(C)cn2)OCCCC[C@@H](C)O3)cc1
  A: .	B: .	C: .	D: 7[16.7 µM]	E: 0
> C[C@H]1CN([C@@H](C)CO)S(=O)(=O)c2ccc(C#CCC3CCCC3)cc2O[C@@H]1CN(C)C(=O)c1ccccn1
  A: .	B: .	C: .	D: 11[16.7 µM]	E: 1
> C[C@H]1CN([C@@H](C)CO)C(=O)CCCn2cc(nn2)CO[C@H]1CN(C)Cc1ccc(O)cc1
  A: .	B: .	C: .	D: 9[16.7 µM]	E: -6
> Cc1ccc(S(=O)(=O)N(C)C[C@@H]2OCCCC[C@@H](C)Oc3ccc(NS(=O)(=O)c4ccc(F)cc4)cc3C(=O)N([C@H](C)CO)C[C@H]2C)cc1
  A: .	B: .	C: .	D: -11[16.7 µM]	E: -15
> C[C@H](CO)N1C[C@H](C)[C@H](CN(C)Cc2ccc(Oc3ccccc3)cc2)Oc2ccc(NC(=O)CCCN(C)C)cc2CC1=O
  A: .	B: .	C: .	D: 13[16.7 µM]	E: 4
> Cc1noc(C)c1NC(=O)Nc1ccc2c(c1)C(=O)N([C@@H](C)CO)C[C@H](C)[C@@H](CN(C)Cc1ccccc1)OCCCC[C@H](C)O2
  A: .	B: .	C: .	D: 21[16.7 µM]	E: 16
> COc1cccc(S(=O)(=O)N(C)C[C@@H]2Oc3cc(C4=CCCC4)ccc3S(=O)(=O)N([C@H](C)CO)C[C@H]2C)c1
  A: .	B: .	C: .	D: 12[16.7 µM]	E: -10
> COCC(=O)Nc1ccc2c(c1)[C@H]1C[C@@H](CC(=O)N3CCCCC3)O[C@H](CO)[C@H]1O2
  A: .	B: .	C: .	D: -9[16.7 µM]	E: 13
> O=C(C[C@@H]1CC[C@@H](NC(=O)c2cccnc2)[C@@H](CO)O1)NCc1ccc(Cl)c(Cl)c1
  A: .	B: .	C: .	D: -18[16.7 µM]	E: 14
> C[C@@H]1CN([C@@H](C)CO)C(=O)c2cc(-c3cccnc3)cnc2O[C@H]1CN(C)C(=O)C1CCOCC1
  A: .	B: .	C: .	D: -3[16.7 µM]	E: 14
> C[C@@H]1CCCCO[C@@H](CN(C)C(=O)Nc2cccc3ccccc23)[C@H](C)CN([C@@H](C)CO)C(=O)c2cc(NC(=O)Nc3ccc(C(F)(F)F)cc3)ccc2O1
  A: .	B: .	C: .	D: 7[16.7 µM]	E: -5
> C[C@H](CO)N1C[C@H](C)[C@H](CN(C)Cc2ccncc2)Oc2c(NC(=O)Nc3ccc(F)cc3)cccc2C1=O
  A: .	B: .	C: .	D: 0[16.7 µM]	E: -11
> CCNC(=O)C[C@@H]1CC[C@@H]2[C@@H](COc3ccc(NC(=O)Nc4ccccc4C)cc3C(=O)N2C)O1
  A: .	B: .	C: .	D: -2[16.7 µM]	E: -2
> C[C@H]1CN([C@@H](C)CO)C(=O)c2cc(/C=C/c3ccccc3)cnc2O[C@H]1CN(C)C(=O)Cc1ccccn1
  A: .	B: .	C: .	D: -13[16.7 µM]	E: -9
> COc1ccc(CNC(=O)C[C@H]2C=C[C@@H](NC(=O)c3cccc(F)c3)[C@@H](CO)O2)cc1
  A: .	B: .	C: .	D: 27[16.7 µM]	E: 10
> C[C@@H]1CN([C@@H](C)CO)C(=O)Cc2cc(NC(=O)CCC(F)(F)F)ccc2O[C@@H]1CN(C)S(=O)(=O)c1ccc(Cl)cc1
  A: .	B: .	C: .	D: 13[16.7 µM]	E: 22
> Cc1ccc(S(=O)(=O)N(C)C[C@@H]2Oc3cc(C#CC4CCCC4)ccc3S(=O)(=O)N([C@@H](C)CO)C[C@@H]2C)cc1
  A: .	B: .	C: .	D: 42[16.7 µM]	E: 8
> C[C@H]1CN([C@@H](C)CO)C(=O)c2cc(NC(=O)NC3CCCCC3)ccc2O[C@H]1CN(C)C
  A: .	B: .	C: .	D: 0[16.7 µM]	E: -7
> Cc1noc(C)c1S(=O)(=O)Nc1ccc2c(c1)C(=O)N([C@H](C)CO)C[C@H](C)[C@@H](CN(C)C(=O)CCC(F)(F)F)OCCCC[C@H](C)O2
  A: .	B: .	C: .	D: -14[16.7 µM]	E: 31
> C[C@H](CO)N1C[C@H](C)[C@H](CN(C)C(=O)c2cccnc2)Oc2ncc(-c3ccc(C(=O)N(C)C)cc3)cc2C1=O
  A: .	B: .	C: .	D: 14[16.7 µM]	E: -10
> C[C@@H]1CCCCO[C@H](CN(C)C(=O)Nc2cccc3ccccc23)[C@H](C)CN([C@@H](C)CO)C(=O)c2cc(NC(=O)C3CCCCC3)ccc2O1
  A: .	B: .	C: .	D: -89[16.7 µM]	E: 12
> C[C@@H]1CCCCO[C@H](CN(C)C(=O)C2CCCCC2)[C@@H](C)CN([C@@H](C)CO)C(=O)c2cc(NC(=O)Nc3ccccc3)ccc2O1
  A: .	B: .	C: .	D: 34[16.7 µM]	E: -1
> C[C@@H]1CCCCO[C@H](CN(C)S(=O)(=O)c2ccc(F)cc2)[C@@H](C)CN([C@H](C)CO)C(=O)c2cc(N(C)C)ccc2O1
  A: .	B: .	C: .	D: 12[16.7 µM]	E: -2
